High-throughput results from PubChem BioAssay.
MLL AF4-AF9 inh = MLL-AF4/AF9 protein interaction inhibition | P42568 | AlphaScreen, biotin-AF4 peptide binding to FLAG-AF9 | inhibition, % at 10 µM | 350,000 compounds, 0.47% hits;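 active = every replicate reaching a set inhibition limit, whatever the replicate mean, cut at about 25% in these data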;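 also: 0% = plate neutral control median and 100% = total signal loss; the record names both 10 and 1 µM as test concentration; the first replicate is given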
Target sequence (P42568 whole entry, looked up): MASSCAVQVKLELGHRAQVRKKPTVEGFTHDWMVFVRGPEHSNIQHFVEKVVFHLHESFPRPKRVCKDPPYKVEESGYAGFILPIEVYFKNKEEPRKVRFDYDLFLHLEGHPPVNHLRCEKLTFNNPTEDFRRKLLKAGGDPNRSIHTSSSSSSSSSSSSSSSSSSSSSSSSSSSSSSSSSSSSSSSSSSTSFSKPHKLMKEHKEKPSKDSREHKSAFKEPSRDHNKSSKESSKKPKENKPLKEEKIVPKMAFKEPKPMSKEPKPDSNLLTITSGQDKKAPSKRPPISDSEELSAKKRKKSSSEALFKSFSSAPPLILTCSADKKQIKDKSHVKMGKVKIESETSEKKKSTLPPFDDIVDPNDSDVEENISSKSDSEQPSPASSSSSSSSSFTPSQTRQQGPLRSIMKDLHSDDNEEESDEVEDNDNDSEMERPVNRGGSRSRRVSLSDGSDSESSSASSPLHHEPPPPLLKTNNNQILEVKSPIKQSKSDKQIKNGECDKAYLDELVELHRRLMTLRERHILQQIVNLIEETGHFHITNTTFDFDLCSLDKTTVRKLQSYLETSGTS
* marks the source's active call; other numbers are inactive results; & = joins results of further samples. The list is partial (hit frequency here may not be typical).

MLL AF4-AF9 inh	compound
2.7	C[C@@H](NC(=O)[C@H]1[C@H](CO)[C@H]2Cn3c(ccc(C4=CCCCC4)c3=O)[C@H]2N1C)c1ccccc1
-1.5	C[C@@H]1CN([C@H](C)CO)C(=O)Cc2cc(NC(=O)C3CC3)ccc2O[C@H]1CN(C)C(=O)Nc1ccccc1
7.3	CO[C@@H]1CN(C)C(=O)c2ccc(NC(=O)Nc3ccc4c(c3)OCO4)cc2OC[C@H](C)NC[C@H]1C
1.8	COc1ccc(S(=O)(=O)Nc2cccc3c2O[C@@H](CN(C)Cc2ccc(C(=O)Nc4ccccc4N)cc2)[C@@H](C)CN([C@@H](C)CO)C3=O)cc1
-3.6	C[C@@H]1CN([C@@H](C)CO)C(=O)c2cc(NC(=O)c3ccncc3)ccc2O[C@@H](C)CCCCO[C@@H]1CN(C)C(=O)c1ccccc1
-15	CN1C(=O)c2cc(NC(=O)c3ccccc3Cl)ccc2OC[C@@H]2O[C@@H](CC(=O)NCC(F)(F)F)CC[C@H]21
-0.6	COCC(=O)N1CCC2(CC1)CN(Cc1ccc3c(c1)OCO3)[C@H](CO)c1c2c2ccc(OC)cc2n1C
-6.7	COc1ccc(NC(=O)CNc2cc(C)ccc2C)cc1S(=O)(=O)N1CCOCC1
-8.9	C[C@@H]1CN([C@H](C)CO)C(=O)Cc2cc(NC(=O)C3CCCCC3)ccc2O[C@@H]1CN(C)S(=O)(=O)c1ccc(F)cc1
-2.8	CN1[C@@H]2Cn3c(ccc(C4=CCCC4)c3=O)[C@H]1[C@@H](C(=O)N1CCOCC1)[C@@H]2CO
-2.5	COCC#Cc1ccc2c(c1)O[C@@H](CN(C)C(=O)COC)[C@@H](C)CN([C@@H](C)CO)S2(=O)=O
0.7	COc1ccccc1C#Cc1cnc2c(c1)C(=O)N([C@H](C)CO)C[C@H](C)[C@@H](CN(C)C(=O)c1ccc3c(c1)OCO3)O2
2.1&-4.4	COc1ccccc1S(=O)(=O)N(C)C[C@H]1Oc2cc(Br)ccc2S(=O)(=O)N([C@H](C)CO)C[C@H]1C
0.5	CCCC(=O)N1CCC1(C)C(=O)Nc1ccc(C)c(C)c1 (stereo not given)
-3.8	O=C(C1CCOCC1)N1CC[C@H]2[C@H](CO)Nc3ccc(-c4cccc(F)c4)cc3[C@H]21
3.9	C[C@H](CO)N1C[C@H](C)[C@@H](CN(C)S(=O)(=O)c2ccsc2)OCc2ccccc2-c2ccccc2C1=O
-3.8	CCC(=O)N(C)C[C@@H]1Oc2cc(-c3cccc(OC)c3)ccc2S(=O)(=O)N([C@@H](C)CO)C[C@H]1C
-3.2	C[C@@H]1CN([C@H](C)CO)C(=O)c2cc(NS(=O)(=O)c3ccc(F)cc3)ccc2O[C@@H](C)CCCCO[C@H]1CN(C)Cc1ccncc1
-1.7	COc1ccc(S(=O)(=O)Nc2ccc3c(c2)CC(=O)N([C@@H](C)CO)C[C@@H](C)[C@H](CN(C)Cc2ccc(C(=O)Nc4ccccc4N)cc2)O3)cc1
4.9	C[C@@H]1CCCCO[C@H](CN(C)C(=O)Nc2ccc(C(F)(F)F)cc2)[C@H](C)CN([C@@H](C)CO)C(=O)c2cc(N(C)C)ccc2O1
-1.6	CC(C)NC(=O)N(C)C[C@@H]1Oc2cc(C#Cc3cccc(F)c3)ccc2S(=O)(=O)N([C@@H](C)CO)C[C@@H]1C
-9.7	CO[C@@H]1CN(C)C(=O)c2ccc(NC(=O)C3CCOCC3)cc2OC[C@H](C)N(CC2CC2)C[C@H]1C
0.2	O=C(C1CCCCC1)N1C[C@@H]2[C@H](c3ccccc31)[C@@H](CO)N2C(=O)c1ccccc1F
6.8	O=C(NC(c1ccccc1)c1ccc2ccccc2n1)C1CCN(CCOc2ccc(Cl)cc2)CC1 (stereo not given)
-0.2	C[C@@H]1CN([C@@H](C)CO)C(=O)c2cccc(NC(=O)CCCCCC(=O)Nc3ccccc3N)c2O[C@@H]1CN(C)Cc1ccc(Cl)c(Cl)c1
13	COc1ccc2c3c([nH]c2c1)[C@H](CO)N(Cc1ccc(Cl)cc1)CC31CN(Cc2ccccc2)C1
-3.4	C/C=C/c1cnc2c(c1)C(=O)N([C@H](C)CO)C[C@@H](C)[C@@H](CN(C)C(=O)Nc1ccc(F)cc1)O2
9.1	C[C@]12Cc3ccccc3C1CC1=N[C@@H](c3ccccn3)O[C@@]13C[C@@H]2C(=O)N3C1CCN(Cc2ccccc2)CC1 (stereo not given in full)
-0.6	CC(C)(C)[S@](=O)N1Cc2cc(C(=O)N3CCc4ccccc4C3)nc(-c3cccc(-c4cccnc4)c3)c2[C@@H]1CCO
-2.7	CO[C@H]1CN(C)C(=O)c2ccc(NS(=O)(=O)c3c(C)noc3C)cc2OC[C@@H](C)NC[C@H]1C
-3.9	C[C@H](CO)N1C[C@H](C)[C@@H](CN(C)C(=O)c2ccccn2)Oc2ncc(C#Cc3ccccn3)cc2C1=O
4.7	COc1ccc(NC(=O)Nc2ccc3c(c2)C(=O)N([C@@H](C)CO)C[C@@H](C)[C@@H](CN(C)C(=O)Nc2ccc4c(c2)OCO4)OCCCC[C@@H](C)O3)cc1
-0.9	C[C@H](CO)N1C[C@H](C)[C@@H](CN(C)C(=O)[C@H](C)c2ccccc2)OCc2ccccc2-c2ccccc2C1=O
9.6	O=C(NCC1CCCO1)c1ccccc1NS(=O)(=O)c1ccc(Br)s1 (stereo not given)
-1.6	Cc1noc(C)c1S(=O)(=O)Nc1ccc2c(c1)C(=O)N([C@H](C)CO)C[C@H](C)[C@H](CN(C)C)O2
-2.2	CN(C)C(=O)c1cccc(-c2cccc3nccn23)c1
-8.7	CC1CCCC(NC(=O)COC(=O)C2=COCCO2)C1C (stereo not given)
-1.4	COc1ccc(NC(=O)N(C)C[C@@H]2Oc3c(NS(=O)(=O)c4cn(C)cn4)cccc3C(=O)N([C@H](C)CO)C[C@@H]2C)cc1
-0.5	CCCC#Cc1ccc([C@@H]2[C@@H](CO)N3C(=O)CN(C(=O)c4cccnc4)C[C@@H]23)cc1
-0.9	NCC[C@H]1CC[C@@H](NS(=O)(=O)Cc2ccccc2)[C@@H](CO)O1
-3.5	C[C@H]1CN([C@@H](C)CO)C(=O)c2cc(-c3cccc(C#N)c3)cnc2O[C@H]1CN(C)C(=O)c1cnccn1
2.1	C[C@H](CO)N1C[C@H](C)[C@@H](CN(C)Cc2ccc(Cl)c(Cl)c2)Oc2ccc(NC(=O)Cc3ccccc3)cc2CC1=O
-3.7	C[C@@H]1CN([C@H](C)CO)C(=O)c2cc(-c3cncnc3)cnc2O[C@@H]1CN(C)C(=O)c1cccc(F)c1
-0.9	COc1ccc(S(=O)(=O)N[C@@H]2CC[C@H](CCNC(=O)Cc3ccccn3)O[C@@H]2CO)cc1
2.7	CC(=O)Nc1cccc(-c2ccnc3c2CC(C(=O)NCc2cccnc2)O3)c1 (stereo not given)
0.9	Cc1ccc(S(=O)(=O)N[C@H](C(=O)NCCN=[N+]=[N-])C(C)C)cc1
-1.9	Cc1noc(C)c1S(=O)(=O)N(C)C[C@@H]1OCCCC[C@H](C)Oc2ccc(NS(C)(=O)=O)cc2C(=O)N([C@H](C)CO)C[C@H]1C
-1.5	CCCNC(=O)C[C@H]1CC[C@H]2[C@@H](COC[C@H](O)CN2C(=O)c2ccccn2)O1
-3.3	CN(c1ccccc1)S(=O)(=O)c1ccc(C(=O)Nc2cccc(S(=O)(=O)N3CCOCC3)c2)cc1
-3.7	O=C(c1ccccc1)N1CCN(c2cc(Cl)nc3cc(-c4cccc(Cl)c4)nn23)CC1
5.2	CCCN(C)C[C@H]1Oc2cc(-c3cccc(OC)c3)ccc2S(=O)(=O)N([C@H](C)CO)C[C@H]1C
-1.9	COc1cccc(CN2[C@@H](CO)[C@@H]3c4ccccc4N(C(=O)c4cccnc4)C[C@@H]32)c1
0.6	C[C@H]1CN([C@@H](C)CO)S(=O)(=O)c2ccc(C#Cc3ccccc3)cc2O[C@H]1CN(C)C(=O)c1ccccn1
-2.4	O=C1CN(S(=O)(=O)c2ccccc2)C[C@@H]2[C@@H](c3ccc(C#Cc4ccccc4)cc3)[C@H](CO)N12
-3.7	C[C@@H]1CCCCO[C@H](CN(C)C(=O)Nc2ccc3c(c2)OCO3)[C@@H](C)CN([C@H](C)CO)C(=O)c2cc(NC(=O)Nc3ccc(C(F)(F)F)cc3)ccc2O1
4.1&14	Cc1ccccc1-c1ccc(C2[C@@H]3CN(C(=O)Nc4cccc(F)c4)C[C@H]2N3)cc1 (stereo not given in full)

10 consecutive compounds already listed, for reference:
MLL AF4-AF9 inh	compound
-1.9	Cc1noc(C)c1S(=O)(=O)N(C)C[C@@H]1OCCCC[C@H](C)Oc2ccc(NS(C)(=O)=O)cc2C(=O)N([C@H](C)CO)C[C@H]1C
-1.5	CCCNC(=O)C[C@H]1CC[C@H]2[C@@H](COC[C@H](O)CN2C(=O)c2ccccn2)O1
-3.3	CN(c1ccccc1)S(=O)(=O)c1ccc(C(=O)Nc2cccc(S(=O)(=O)N3CCOCC3)c2)cc1
-3.7	O=C(c1ccccc1)N1CCN(c2cc(Cl)nc3cc(-c4cccc(Cl)c4)nn23)CC1
5.2	CCCN(C)C[C@H]1Oc2cc(-c3cccc(OC)c3)ccc2S(=O)(=O)N([C@H](C)CO)C[C@H]1C
-1.9	COc1cccc(CN2[C@@H](CO)[C@@H]3c4ccccc4N(C(=O)c4cccnc4)C[C@@H]32)c1
0.6	C[C@H]1CN([C@@H](C)CO)S(=O)(=O)c2ccc(C#Cc3ccccc3)cc2O[C@H]1CN(C)C(=O)c1ccccn1
-2.4	O=C1CN(S(=O)(=O)c2ccccc2)C[C@@H]2[C@@H](c3ccc(C#Cc4ccccc4)cc3)[C@H](CO)N12
-3.7	C[C@@H]1CCCCO[C@H](CN(C)C(=O)Nc2ccc3c(c2)OCO3)[C@@H](C)CN([C@H](C)CO)C(=O)c2cc(NC(=O)Nc3ccc(C(F)(F)F)cc3)ccc2O1
4.1&14	Cc1ccccc1-c1ccc(C2[C@@H]3CN(C(=O)Nc4cccc(F)c4)C[C@H]2N3)cc1 (stereo not given in full)

Additional entries follow.
MLL AF4-AF9 inh	compound
5.4	OC(c1ccc(F)cc1)c1ncc(-c2ccccc2F)[nH]1 (stereo not given)
0.6	COCCn1c(SCC(=O)Nc2ccc(F)cc2)nc2c(c1=O)SCC2
-10	CN(CC(=O)NCCc1ccc(S(N)(=O)=O)cc1)CC(=O)Nc1ccc(Cl)c(C(F)(F)F)c1
5.1	C[C@H]1CN([C@@H](C)CO)C(=O)c2cc(NC(=O)CCC(F)(F)F)ccc2O[C@H]1CN(C)Cc1ccc(-c2ccccc2)cc1
-0.5	O=C(O)C[C@H]1C=C[C@@H](NC(=O)Nc2ccccc2)[C@H](CO)O1
-4.0&-6.6	O=C(Nc1ccccc1F)N1[C@@H]2CNC[C@H]1C2c1ccc(-c2cccnc2)cc1 (stereo not given in full)
3.5	C[C@@H]1CN([C@@H](C)CO)C(=O)c2cc(N(C)C)ccc2O[C@@H]1CN(C)S(=O)(=O)c1ccc(F)cc1
-3.0	O=C(N[C@H]1CC[C@@H](CCNS(=O)(=O)c2ccc(Cl)cc2)O[C@@H]1CO)c1cccc(F)c1
1.9	C[C@@H]1CN([C@@H](C)CO)C(=O)c2cc(NS(=O)(=O)c3ccccc3)ccc2O[C@H]1CN(C)Cc1ccc(Oc2ccccc2)cc1
0.6	CN1C(=O)c2cc(NC(=O)c3cccc(F)c3)ccc2OC[C@H]2O[C@@H](CC(=O)NCc3ccccc3Cl)CC[C@@H]21
-0.9	O=C(N[C@H]1CC[C@H](CCNS(=O)(=O)c2ccc(F)cc2)O[C@H]1CO)C1CC1
-0.4	COCC(=O)Nc1ccc2c(c1)[C@@H]1C[C@H](CC(=O)NCC3CC3)O[C@H](CO)[C@@H]1O2
0.7	O=C(Nc1ccc2c(c1)OCO2)N[C@H]1CC[C@H](CCNC(=O)C2CCCCC2)O[C@H]1CO
2.8	CN(C)CC#Cc1ccc([C@H]2[C@@H](CO)N3C(=O)CN(C(=O)Cc4ccccc4)C[C@H]23)cc1
-1.4	CCCN1C[C@H](C)[C@H](OC)CN(C)C(=O)c2cc(NC(=O)c3ccno3)ccc2OC[C@H]1C
-13	COc1ccc(CNC(=O)C[C@H]2CC[C@H](NC(=O)Nc3ccc4c(c3)OCO4)[C@@H](CO)O2)cc1
-3.0	COC(=O)C[C@H]1C=C[C@@H](NS(=O)(=O)c2ccccc2)[C@@H](CO)O1
3.0	C[C@@H]1CN([C@H](C)CO)C(=O)Cc2cc(NC(=O)Cc3cn(C)c4ccccc34)ccc2O[C@H]1CN(C)S(=O)(=O)c1cn(C)cn1
-1.0	C[C@H]1CN([C@@H](C)CO)C(=O)Cc2cc(NC(=O)Nc3ccc4c(c3)OCO4)ccc2O[C@@H]1CN(C)S(C)(=O)=O
-17	Cn1cc(C[C@@H](N)C(=O)O)c2ccccc21
-0.8	COC(=O)C[C@@H]1CC[C@@H]2[C@@H](COc3ccc(NC(=O)c4ccc(F)cc4)cc3C(=O)N2C)O1
-0.2	COCC(=O)N1C[C@H](C)[C@H](OC)CN(C)C(=O)c2ccc(NC(=O)c3ccc(OC)cc3)cc2OC[C@H]1C
-1.2	C[C@@H]1CN([C@@H](C)CO)C(=O)c2cc(-c3ccccc3)cnc2O[C@@H]1CN(C)C(=O)Cc1ccccc1
0.6	O=c1c2ccccc2nc2n1CCc1ccc(Br)cc1-2
2.1	C[C@H]1CN([C@@H](C)CO)C(=O)c2cccc(NS(=O)(=O)c3ccccc3)c2O[C@@H]1CN(C)Cc1ccc(Cl)c(Cl)c1
1.2	COc1ccccc1NC(=O)Nc1ccc2c(c1)C(=O)N(C)C[C@H](OC)[C@H](C)CN(C)[C@@H](C)CO2
-0.1	C[C@@H]1CCCCO[C@@H](CN(C)C(=O)Nc2cccc3ccccc23)[C@@H](C)CN([C@H](C)CO)C(=O)c2cc(NS(=O)(=O)c3ccc(Cl)cc3)ccc2O1
-0.9	O=C(C1CC1)N1CC(=O)N2[C@H](CO)[C@H](c3ccc(C#CC4CCCC4)cc3)[C@@H]2C1
